From PubChem BioAssay
RE007 growth inh – qHTS Assay for Inhibitors of the HIV-1 protein Vpr; 0.21% of 360,000 active; Potency, µM (series often up to 92.2 µM), inactives show top-dose activity change, negative = less growth; S. pombe RE007 Vpr strain, BacTiter-Glo ATP luminescence, 24 h; control for the full effect not named in the record; active = well fitted falling curve with a large enough effect; inconclusive = small, poorly fitted or top-dose-only effect; inactive = no such curve, though single readings can be large or run the other way;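 further: on the % scale 0 is the no-effect control and ±100 the full control effect; nearly all actives have a fitted effect of over 50% in size; the assay follows cell death caused by Vpr and the record does not say whether a fall means rescue or toxicity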
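Fission yeast RE007 carrying one integrated HIV-1 vpr copy, seeded at OD 0.01 in PMG+AL medium with 23 nL pinned compound. Grown 24 h at 30 degrees; viability read by BacTiter-Glo luminescence after 5 min.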
SARS PLP yeast – qHTS of Yeast-based Assay for SARS-CoV PLP. S. cerevisiae expressing SARS-CoV PLpro, growth rescue; control for the full effect not named in the record. Potency, µM (highest dose often 32.9 µM), for inactives: at the highest dose activity, positive = growth rescue. 0.19% of 330,000 active. AID 485353, 2010; active means well fitted rising curve with a large enough effect; inconclusive means small, poorly fitted or top-dose-only effect; inactive means no such curve, though single readings can be large or run the other way; further: 0% is about no effect; nearly all actives have a fitted effect of over 55% in size; growth read by luminescence after 48 h
StopGo reporter – High Throughput Screening for Foot and Mouth Disease Virus Antivirals. human cells with a luciferase reporter of 2A StopGo recoding; control for the full effect not named in the record. AID 1159524, 2015. 1.2% of 410,000 active. Potency, µM (series often up to 57.9 µM), without a hit: at the top dose signal change, negative = less light; active = well fitted falling curve with a large enough effect; inconclusive = small, poorly fitted or top-dose-only effect; inactive = no such curve, though single readings can be large or run the other way; tested in HEK293T cells; further: on the % scale 0 is the no-effect control and ±100 the full control effect; nearly all actives have a fitted effect of over 45% in size; luciferase light after 4 h
* = called active by the depositor; u = inconclusive; [ ] = another dose, or the depositor's remark. Potency means the concentration at half of the fitted maximal effect. Only part of the results is shown. The share of hits here may be higher or lower than overall.

A first look (2 entries):
SMILES | RE007 growth inh | SARS PLP yeast | StopGo reporter
COC(=O)[C@]1(C)CCC[C@@]2(C)C3CC[C@]4(OC(C)=O)C[C@@]3(CCC21)CC4=O (stereo partly drawn) | 14% | 3% | u
CN(c1ccc(C(=O)N2CCCCCC2)cc1)S(=O)(=O)c1ccccc1 | 6% | 3% | -8%

The whole of this part, previewed entries included:
SMILES | RE007 growth inh | SARS PLP yeast | StopGo reporter
COC(=O)[C@]1(C)CCC[C@@]2(C)C3CC[C@]4(OC(C)=O)C[C@@]3(CCC21)CC4=O (stereo partly drawn) | 14% | 3% | u
CN(c1ccc(C(=O)N2CCCCCC2)cc1)S(=O)(=O)c1ccccc1 | 6% | 3% | -8%
O=C1C=C(c2ccc3ccccc3c2)C[C@@H](c2ccc(Cl)cc2)C1 | 3% | 0% | -9%
Cc1cc(C(=O)OCC(=O)Nc2ccc(F)cc2F)c(C)n1C1CC1 | -11% | -24% | 8%
OC(CNCc1ccccc1)COc1ccccc1 (stereo not drawn) | 7% | 4% | -13%
O=C(CNC(=O)OCc1ccccc1)Nc1ccc(F)cc1 | -19% | 4% | 4%
CC(=O)c1ccc(NC(=S)N(Cc2ccccc2)C(C)C2CC2)cc1 (stereo not drawn) | -9% | 5% | 26%
Cc1c(Cl)c(C(F)F)nn1CC(=O)NC1C(=O)N2C(C(=O)O)=C(CSc3nnnn3C)CSC12 (stereo not drawn) | -8% | -3% | 3%
C[C@H](CO)N1C[C@H](C)[C@@H](CN(C)S(=O)(=O)c2ccc(F)cc2)Oc2ccc(NC(=O)Cc3cn(C)c4ccccc34)cc2C1=O | 4% | 3% | -17%
Cc1ccc(NC(=O)NC(=O)N(C(C)C)S(=O)(=O)c2ccc(C)cc2)cc1 | -2% | -1% | 1%
CC(C)[C@H](NS(=O)(=O)c1cccc(Cl)c1)C(=O)OCC(=O)NC(=O)CN1CCCC1=O | 0% | -4% | -8%
CCOC(=O)C1CCCN(C(=O)c2cccc(N3C(=O)c4ccccc4C3=O)c2)C1 (stereo not drawn) | 8% | -1% | 5%
COc1ccc(C(=O)N2CCN(c3ccc(C(C)=O)cc3)CC2)cc1S(=O)(=O)N1CCCC1 | -13% | -11% | 31%[activator]
O=C(CN1C(=O)NC(c2ccccc2)(c2ccccc2)C1=O)NCc1ccccc1 | 1% | 1% | -1%
CCCCC(NC(=O)c1ccc(C#N)cc1)C(=O)NCCC (stereo not drawn) | 11% | 2% | -7%
CCc1ccc(N2CC(C(=O)OCC(=O)Nc3ccccc3C)CC2=O)cc1 (stereo not drawn) | -3% | 2% | -11%
CSc1ccccc1NC(=O)COC(=O)Cn1cc(C(F)(F)F)ccc1=O | 1% | -1% | -14%
COc1cc(C(=O)OCC(=O)NCC2CCCO2)cc(OC)c1OC (stereo not drawn) | 1% | 9% | 43%[activator]
COC(=O)C1=C(C)NC(=S)NC1/C=C/c1ccccc1 (stereo not drawn) | -15% | 0% | -12%
CCCCCN1C=CC(=C2C(=O)c3ccccc3C2=O)C=C1 | u | -20% | 2.8µM*
COC(=O)C1=C(c2ccc(-c3ccccc3)c(F)c2)C[C@@H]2CC[C@H]1N2C(=O)NCCOc1ccc(OC)cc1 | -1% | 2% | 0%
CC(C)NC(=O)N(C)C[C@H]1Oc2c(NC(=O)Nc3ccccc3)cccc2C(=O)N([C@H](C)CO)C[C@@H]1C | -2% | -5% | 10%
Nc1ncccc1C(=O)OCC(=O)N1CCN(S(=O)(=O)c2ccc(Cl)cc2)CC1 | -3% | -2% | -25%
O=C(C[n+]1ccccc1)N/N=C/c1ccc(Cl)cc1 | -2% | 3% | -15%

Six records drawn at random from those above, as already listed:
SMILES | RE007 growth inh | SARS PLP yeast | StopGo reporter
Nc1ncccc1C(=O)OCC(=O)N1CCN(S(=O)(=O)c2ccc(Cl)cc2)CC1 | -3% | -2% | -25%
COC(=O)C1=C(C)NC(=S)NC1/C=C/c1ccccc1 (stereo not drawn) | -15% | 0% | -12%
COc1cc(C(=O)OCC(=O)NCC2CCCO2)cc(OC)c1OC (stereo not drawn) | 1% | 9% | 43%[activator]
CC(C)NC(=O)N(C)C[C@H]1Oc2c(NC(=O)Nc3ccccc3)cccc2C(=O)N([C@H](C)CO)C[C@@H]1C | -2% | -5% | 10%
O=C(C[n+]1ccccc1)N/N=C/c1ccc(Cl)cc1 | -2% | 3% | -15%
CCCCCN1C=CC(=C2C(=O)c3ccccc3C2=O)C=C1 | u | -20% | 2.8µM*

New compounds follow:
SMILES | RE007 growth inh | SARS PLP yeast | StopGo reporter
Cc1ccc(S(=O)(=O)N2CCOCC2)cc1NC(=O)COC(=O)c1cnccn1 | -9% | 3% | -14%
COC(=O)[C@]1(Cc2ccccc2)N[C@H](CN(C)S(=O)(=O)c2ccc(OC(F)(F)F)cc2)[C@@H]2C(=O)N(Cc3ccccc3)C(=O)[C@@H]21 | -14% | 14% | -22%
CC(C)(O)CC[C@@H](O)[C@](C)(O)C1CC[C@@]2(O)C3=CC(=O)[C@]4(O)C[C@@H](O)[C@@H](O)C[C@]4(C)C3CC[C@]12C (stereo partly drawn) | 29% | -1% | -9%
CC(=O)Nc1ccc(-n2cc(-c3ccccc3)[nH]c2=S)cc1 | 5% | 1% | 10%
COc1ccc(S(=O)(=O)Nc2cccc3c2O[C@H](CN(C)C(=O)Nc2c(C)noc2C)[C@@H](C)CN([C@H](C)CO)C3=O)cc1 | 4% | -46% | 20%
COc1ccc(NC(=O)c2cc(S(=O)(=O)N3CCCC3)ccc2C)cn1 | 1% | 0% | -21%
C=C[C@H](Cc1ccccc1)N(Cc1ccccc1)S(=O)(=O)N(Cc1ccccc1)[C@H](C=C)Cc1ccccc1 | -2% | -9% | u
COc1ccccc1CCC(=O)N1CCN(S(=O)(=O)c2cc(C(F)(F)F)ccc2Cl)CC1 | -3% | 0% | -19%
CC(C)(C)C1N=C(c2ccc3ccccc3c2)OC1=O (stereo not drawn) | 10% | -6% | 31%[activator]
O=C(NC1(Cc2ccccc2)CCN(CCc2cccs2)C1=O)c1ccccc1 (stereo not drawn) | -12% | -4% | 9%
C=CCC[C@@H](Cc1ccc(F)cc1)C(=O)OC[C@@H](NC(=O)[C@@H](CC=C)CC(=O)N[C@H](CO)Cc1ccccc1)C(C)(C)C | 8% | -1% | u
CCN(c1ccccc1)S(=O)(=O)c1cc(NC(=O)C2CC2)ccc1Cl | -10% | -10% | -23%
COc1ccc(COC(=O)Oc2ccc(CNC(C)=O)cc2OC)c([N+](=O)[O-])c1 | -1% | 2% | -14%
CCOP(=O)(c1ccccc1)C1(C#N)CC1 (stereo not drawn) | 9% | -6% | -6%
O=C(Nc1ccccc1N1CCOCC1)c1cc(=O)[nH]c2ccccc12 | -16% | 3% | -15%
CCOC(=O)c1c(C)[nH]c(NC(=O)NNC(=O)c2ccccc2Cl)c1C | -2% | -4% | -20%
CC(C)C[C@@]12C(=O)N(c3cccc(Br)c3)C(=O)N1[C@H](c1ccc(Cl)cc1)[C@@H]1C(=O)N(C3CCCCC3)C(=O)[C@@H]12 | -3% | 0% | -23%
O=C(Nc1ccccc1C(F)(F)F)N1CCN(c2ccccn2)CC1 | 14% | 0% | 9%
COc1ccccc1N1CCN(CC(=O)Nc2ccc3c(c2)OCCO3)CC1 | 6% | -2% | 1%
COc1cc(C#N)ccc1OCC(=O)Nc1cccc(S(=O)(=O)N2CCCC2)c1 | 9% | 8% | -15%
O=C1c2ccccc2[C@@H]2C[C@@H](O)[C@H](Nc3cccc(C(F)(F)F)c3)CCN12 | 17% | 5% | -22%
Cc1ccc(C(=O)OCC(=O)NCc2ccc(F)cc2)o1 | 1% | 1% | -10%
COc1ccc(CCNC(=O)c2cc(-c3ccccn3)nc3ccccc23)cc1 | 1% | -7% | -24%
CC1(c2ccc(OC(F)F)cc2)NC(=O)N(CC(=O)N2c3ccccc3NC(=O)C2(C)C)C1=O (stereo not drawn) | 11% | 7% | -18%
C=CCC[C@@H](Cc1ccc(F)cc1)C(=O)OC[C@H](Cc1c[nH]c2ccccc12)NC(=O)[C@@H](CC=C)CC(=O)N[C@@H](CO)Cc1ccccc1 | -10% | 4% | u
CC1CCC(C(C)C)C(OP(=O)(c2ccccc2)C(O)c2ccncc2)C1 (stereo not drawn) | 7% | -1% | -23%
O=C(Cc1ccccc1)OCC(=O)c1cccc([N+](=O)[O-])c1 | -11% | -6% | -6%
COC(=O)C1=C(c2ccc(F)cc2OCc2ccccc2)C[C@@H]2CC[C@H]1N2C(=O)NCc1ccccc1OC | 8% | 0% | 0%
O=C(CN1C(=O)NC2(CCc3ccccc32)C1=O)Nc1ccccc1OC(F)F (stereo not drawn) | 17% | -6% | -14%
C[C@H](CO)N1C[C@H](C)[C@@H](CN(C)S(=O)(=O)c2ccccc2)Oc2ccc(NS(=O)(=O)c3cccs3)cc2C1=O | 7% | -4% | 15%
CCC(C)NC(=O)CSc1ncnc2sccc12 (stereo not drawn) | 11% | 1% | -3%
CC[C@]1(C(=O)OC)[C@H]2C(=O)N(C)C(=O)[C@H]2[C@H]2CN=C(SCc3ccc(OC)cc3)N21 | 38% | 5% | 4%
NS(=O)(=O)c1ccc(N2N=C(c3ccccc3)CC2c2ccccc2Br)cc1 (stereo not drawn) | 5% | -30% | -27%
O=C(OCC(=O)N1CCN(Cc2ccccc2)CC1)c1ccc(Cl)cc1 | -14% | 7% | 7%
CC(C)N(Cc1ccccc1)C(=O)CN1C(=O)NC2(CCOc3ccccc32)C1=O (stereo not drawn) | 1% | -3% | -10%
Cc1cccc(CCN2C(N(C)C)=NC[C@@H]2Cc2ccccc2)c1 | -3% | 5% | -10%
CCN1C(=O)[C@H]2[C@H]3CN=C(SC)N3[C@@](Cc3ccccc3)(C(=O)OC)[C@H]2C1=O | 8% | 12% | -7%
C[C@H](CO)N1C[C@H](C)[C@@H](CN(C)C(=O)Nc2ccc(C(F)(F)F)cc2)Oc2ccc(NS(=O)(=O)c3ccc(F)cc3)cc2C1=O | 6% | 8% | -7%
CCOc1ccc(CNC(=O)c2ccco2)cc1 | 1% | -3% | 37%[activator]
CC12CCC(=O)N1C(C(=O)NNC(=O)c1ccccc1F)CS2 (stereo not drawn) | 11% | 3% | -8%
COc1ccc(OC)c(S(=O)(=O)NCC(=O)NC2CCCCCC2)c1 | -7% | -4% | 28%
CN(C)c1ccc(C#Cc2ccc3cc(CCCO)oc(=O)c3c2)cc1 | -7% | -7% | 32%[activator]
C=CC[C@@H](CC(=O)N(CCO)Cc1ccccc1)C(=O)NC[C@H](OC(=O)[C@@H](CC=C)Cc1ccc(F)cc1)c1ccccc1 | 8% | 25% | 14µM*
NS(=O)(=O)c1ccc(CCNC(=O)c2ccc(C#CC3(O)CCCCC3)cc2)cc1 | 12% | 0% | u
CC(=O)OCC1=C(C(=O)O)N2C(=O)C(NC(=O)C(C)Cn3cc(Cl)cn3)C2SC1 (stereo not drawn) | 2% | 0% | -13%
CCC(CO)Oc1cc(NC(=O)c2ccc(N)cc2)c2ncn(C(C)C)c2c1 (stereo not drawn) | 0% | -1% | -13%
COC(=O)[C@@]12CCCN1[C@H](c1ccc(-c3ccc(F)cc3)cc1)[C@H]1C(=O)N(C)C(=O)[C@H]12 | -8% | -4% | -29%
COc1nc(OC)nc(N2CCC(C(=O)NC3CC3)CC2)n1 | 1% | 1% | -5%
COc1cc(OC)cc(C(=O)OCC(=O)NC(c2ccccc2)c2ccccc2)c1 | -16% | -4% | -14%
O=C(NC1CC1)c1ccc2c(Cl)c3c(nc2c1)CCCC3 | u | -6% | 54%
CC1(c2ccccc2)NC(=O)N(CC(=O)Nc2ccc3c(c2)CCC3)C1=O (stereo not drawn) | -18% | 0% | 11%
COC(=O)C1=C(c2cccc(OCc3ccccc3)c2)C[C@@H]2CC[C@H]1N2C(=O)NCc1ccc(C(C)(C)C)cc1 | 0% | -1% | -10%
O=C(COC(=O)/C=C/c1cccc(C(F)(F)F)c1)Nc1ccc(Cl)cn1 | -2% | 1%[6.58 µM] | -10%
Cc1[nH]c2ccc(C(=O)OCC(=O)Nc3cccc(S(N)(=O)=O)c3)cc2c1C | -10% | -30% | -1%
O=C(COC(=O)CCSc1ccccc1)Nc1cc(F)ccc1F | 14% | -4% | 8%
Cc1noc(C)c1NC(=O)N(C)C[C@H]1Oc2ccc(NC(=O)Cc3ccccc3)cc2C(=O)N([C@H](C)CO)C[C@@H]1C | 17% | -3% | -8%
COc1cc(OC)cc(C(=O)N[C@H](C(=O)OCC(=O)Nc2ccc(OC)c(OC)c2)C(C)C)c1 | 1% | -2% | 0%
O=C(NC[C@@H]1CCCO1)c1cccc2c1C(=O)c1ccc(N3CCOCC3)cc1S2(=O)=O | 3% | 0% | -21%
CC(C)(C)[C@@H]1COC(=O)[C@H](Cc2ccc(F)cc2)C/C=C\C[C@@H](CC(=O)N(CCO)Cc2ccccc2)C(=O)N1 | 1% | -5% | u
O=C(CCCc1c[nH]c2ccccc12)NCc1cccs1 | -2% | -1% | 12%
